# Calb FLC: C. albicans growth modulation with fluconazole; C. albicans CaCi-2 (fluconazole-resistant clinical isolate) + fluconazole, Alamar Blue growth, 48 h; hit rate 0.57% among 300,000; growth inhibition, % (no concentration beside the values);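 active = most replicates above 75%; inconclusive = exactly half above 75%; inactive = most below 75%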;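 also: all wells also contain fluconazole at 8 µg/ml as a sub-toxic cotreatment; 0% = median of DMSO wells and 100% = median of geldanamycin control wells; wells of about 8 µL received 7.5 nL stock; the first replicate is given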
# RanGTP-Impb inh: inhibitors of RanGTP-importin-beta interaction, primary screen, biochemical, FRET, CFP-Ran, YFP-importin-beta, homogeneous; cell-free CFP-Ran/YFP-importin-beta FRET ratio; inhibition, % (no concentration beside the values); hit rate 1.1% among 300,000;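 active = most replicates above 15%; inconclusive = exactly half above 15%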;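 also: 0% = DMSO wells and 100% = Ran loaded with GDP instead of GTP; wells of about 40 µL received 100 nL stock; the first replicate is given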
# T cruzi repl: blocks replication of Trypanosoma cruzi; AID 1885; T. cruzi beta-gal in NIH3T3, luminescence, 90 h; inhibition, % (no concentration beside the values); hit rate 1.4% among 300,000;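 active = mean inhibition across valid replicates above about 55%, limit read from the data; inconclusive = mean below that limit but half or more replicates reach it; inactive = mean below it, under half of replicates reach it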;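 also: signal also drops with host cell toxicity which is not excluded here; 0% = plate median of DMSO wells and 100% = zero luminescence signal; higher percent means less beta-gal luminescence so fewer parasites; stock transfer was 50 nL into about 50 µL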
# Starred values were filed as active, the others as inactive; ? = inconclusive. Some of the compounds tested; rates above refer to the full screens.
SMILES,Calb FLC,RanGTP-Impb inh,T cruzi repl
c1ccc(Cn2nnnc2CN2CCN(Cc3ccc4c(c3)OCO4)CC2)cc1,-5,0.8,25
C=C1[C@@H](C)C2[C@H](Cc3ccccc3)NC(=O)[C@]23OC(=O)CC[C@H](O)CCC[C@H](C)C/C=C/[C@H]3[C@@H]1O (some centres not stated),-3,-1.8,-15
Cc1[nH]c2ccccc2c1Cc1nnc(SCCC#N)o1,6,-0.1,-8
CCn1c2ccccc2c2nc3cc(S(=O)(=O)N4CCOCC4)ccc3nc21,5,-5.5,11
CCOC(=O)C1CCN(CC(=O)Nc2c(C(=O)OC)[nH]c3ccccc23)CC1,-3,-0.4,9
Cc1ccc(/C=c2/sc3n(c2=O)CCCN=3)o1,11,-3.9,1
O=c1c2ccccc2sc2nc(C3CCCCC3)n(Cc3ccco3)c(=O)c12,?,2.6,8
O=C(CNC(=O)c1ccc(Br)cc1)NCCc1nc2ccccc2[nH]1,-1,-1.4,-15
COc1cccc(C(=O)NC(=S)Nc2ccc(N3CCCC3)cc2)c1,-5,-2.4,-6
CC/C(=N\n1nnnc1Nc1ccccc1)c1ccccc1,-13,0.1,-8
COc1ccc2[nH]c(=O)c(CN(CC3CCCO3)C(=O)Nc3ccccc3OC)cc2c1 (configuration not stated),0,5.1,12
COC(=O)CSC1=C(C#N)C(c2cccc(F)c2)CC(=O)N1 (configuration not stated),10,-0.4,-10
Cc1oc(/N=C/c2ccc(Cl)cc2Cl)c(C#N)c1C,-5,-0.7,-12
COc1ccc(OC)c(-n2c(N)c(C(=O)NCC3CCCO3)c3nc4ccccc4nc32)c1 (configuration not stated),-1,11,10
O=C(CC1CCCC1)Nc1nc2ccccc2[nH]1,3,-2.5,10
Cc1ccc2nc(NCCCN3CCOCC3)c(C=NCCCN3CCOCC3)c(=O)n2c1,-5,39*,-2
N#Cc1cc2sc3nc4ccccc4n3c2cc1C#N,0,1.6,-17
CCCCC(c1nnnn1CC1CCCO1)N1CCN(c2cc(Cl)ccc2C)CC1 (configuration not stated),8,3.7,24
Cc1cccc(NC(=O)c2cc3n(n2)C(C(F)(F)F)CC(c2ccc4c(c2)OCO4)N3)c1 (configuration not stated),-35,3.5,33
O=C(CCCOc1ccc(Cl)cc1)NCC1CCCO1 (configuration not stated),2,-0.4,-11
CCCC(c1nnnn1CCOC)N1CCN(c2cccc(OC)c2)CC1 (configuration not stated),9,-3.1,7
O=C(c1ccncc1)N(Cc1cc2ccccc2[nH]c1=O)C1CCCCC1,-1,1.4,0
N#CCc1nc2c3c4c(sc3ncn2n1)CCCC4,4,-1.9,3
O=C(NCCc1ccccc1)c1ccncc1,-6,-0.6,-3
COc1ccccc1NC(=O)CN1CCN(S(=O)(=O)c2ccc(Br)cc2)CC1,-7,?,8
S=C1CCSc2ccc(Cl)cc2N1,-15,-0.7,-8
O=C(c1ccco1)N1CCN(c2ncnc3c2[nH]c2ccccc23)CC1,-18,1.6,-5
Cc1c(C)c(C)c2[nH]c(-c3ccc4c(c3)OCO4)nc2c1C,-13,0.6,58*
CCC(C)(C)n1nnnc1CN(Cc1ccco1)Cc1cc2cc3c(cc2[nH]c1=O)OCO3,-6,-19,-18
CCOc1ccccc1N(CC(=O)NCC1CCCO1)C(=O)CCC(=O)Nc1ccccn1 (configuration not stated),11,0.8,0

# Record cards (already shown).
# Cc1ccc2nc(NCCCN3CCOCC3)c(C=NCCCN3CCOCC3)c(=O)n2c1 is listed as Calb FLC = -5; RanGTP-Impb inh = 39*; T cruzi repl = -2
# CCC(C)(C)n1nnnc1CN(Cc1ccco1)Cc1cc2cc3c(cc2[nH]c1=O)OCO3 is listed as Calb FLC = -6; RanGTP-Impb inh = -19; T cruzi repl = -18
# COc1ccccc1NC(=O)CN1CCN(S(=O)(=O)c2ccc(Br)cc2)CC1 is listed as Calb FLC = -7; RanGTP-Impb inh = ?; T cruzi repl = 8

# (next part)
SMILES,Calb FLC,RanGTP-Impb inh,T cruzi repl
O=C1C=C(NCC2CCCO2)CC(c2ccccc2)C1 (configuration not stated),-1,1.1,-6
Oc1[nH]c2ccccc2c1C=Nc1ccc2c(c1)OCCO2,9,3.8,-3
Cc1oc2c(c1C(=O)c1ccc(Cl)cc1)C(=O)C(=O)c1ccccc1-2,3,2.5,?
Cc1ccccc1N(Cc1ccccc1F)S(C)(=O)=O,1,2.3,2
CC(C)NS(=O)(=O)c1ccc(CCC(=O)NCc2cccnc2)cc1,-1,-1.3,-5
COCCNC(=O)CSc1nc2cc(OC)c(OC)cc2c(=O)n1CCC1=CCCCC1,14,6.7,2
Cc1cc(C)nc(Nc2n[nH]c(Cc3ccccc3)n2)n1,-1,0.3,?
Cc1cccc(N2CN=c3s/c(=C\c4ccncc4)c(=O)n3C2)c1,0,2.2,-5
CC(=O)c1ccc(-n2nnnc2SCC(=O)N2CCc3ccccc3C2)cc1,8,-1.1,-4
CCOC(=O)C1Cc2cc3c(cc2C1=O)CC(C(=O)OCC)C3=O (configuration not stated),1,?,-10
CCCOc1ccc(C(=O)C(CCC(CNCC)C(=O)c2ccc(OCCC)cc2)CNCC)cc1 (configuration not stated),-11,2.0,56*
CC(=O)c1cccc(NC(=O)c2ccc(N(Cc3ccc(C)cc3)S(C)(=O)=O)cc2)c1,13,-2.9,-6
Cc1ccc(C(=O)C2=C(O)C(=O)N(CCN3CCOCC3)C2c2ccccn2)o1 (configuration not stated),7,23*,0
O=C(CCCn1c(=O)c2sccc2n(CC(=O)NCc2ccco2)c1=O)NCc1ccco1,8,-1.6,-8
O=C(Nc1ccc2nn(-c3ccccc3)nc2c1)c1ccc2c(c1)OCCO2,-12,2.6,3

# A draw from above in order of molecular weight, high to low:
SMILES,Calb FLC,RanGTP-Impb inh,T cruzi repl
CCOC(=O)C1Cc2cc3c(cc2C1=O)CC(C(=O)OCC)C3=O (configuration not stated),1,?,-10
O=C(CCCOc1ccc(Cl)cc1)NCC1CCCO1 (configuration not stated),2,-0.4,-11
Cc1ccccc1N(Cc1ccccc1F)S(C)(=O)=O,1,2.3,2

# Additional entries
SMILES,Calb FLC,RanGTP-Impb inh,T cruzi repl
CCC(C(=O)NCc1ccco1)N(C(=O)CNS(=O)(=O)c1ccc(C)cc1)c1ccccc1OC (configuration not stated),-5,-0.6,18
CCOC(=O)Cc1csc(NC(=O)CSc2ncnc3c2cnn3-c2ccccc2Cl)n1,2,0.7,21
Cc1ccc(-n2nc3ccc(NC(=O)/C=C/c4ccco4)cc3n2)cc1C,20,4.3,-97
O=C(Nc1ccccc1-c1nc2ccccc2[nH]1)c1ccc(S(=O)(=O)N2CCCCC2)cc1,2,3.2,58*
O=C1CSC(c2ccccc2F)N1c1ccccc1 (configuration not stated),-9,1.2,-8
COc1ccc(N2CCN(CCNC(=O)c3c(C)cc(=O)oc3C)CC2)cc1,-10,?,14
C=C1CSc2nc(=O)c3c(C)c(C)sc3n21,-2,0.3,5
Cc1nc(/N=C(\N)Nc2ccccc2)nc2ccccc12,-2,-0.7,-2
C[C@@H](C(=O)N1CCN(C(=O)OC(C)(C)C)CC1)n1cc(-c2cn([C@@H](C)C(=O)N3CCN(C(=O)OC(C)(C)C)CC3)nn2)nn1,4,6.0,1
COc1cccc(-c2nc(N3CC(C)CC(C)C3)c3ccccc3n2)c1O (configuration not stated),-2,0.7,55*
Cc1ccc(C(C(=O)NC(C)(C)C)N(CC2CCCO2)C(=O)Cn2nnc(-c3ccc(C)o3)n2)cc1 (configuration not stated),-22,?,?
COc1ccc(S(=O)(=O)Nc2ccc(S(=O)(=O)N3CCCCC3)cc2)cc1C,30,0.9,17
CC1(C(=O)NC2CCCC2)CCC(=O)N1Cc1ccccc1Cl (configuration not stated),-8,4.8,2
CS(=O)(=O)N(CC(=O)N1CCN(c2ccccc2F)CC1)c1ccc2c(c1)OCCO2,0,-0.2,1
O=C(CC(Sc1ccc(Br)cc1)C(=O)O)c1ccc(Br)cc1 (configuration not stated),-5,0.1,55*
Cc1[nH]c2ccccc2c1/C=N/Nc1ccc([N+](=O)[O-])cc1S(=O)(=O)Nc1ccc(Cl)cc1,28,-9.3,2
COc1cccc(C(c2nnnn2C(C)(C)C)N2CCN(C3CCCCC3)CC2)c1OC (configuration not stated),-11,-2.2,-5
Cn1c(=O)c2ncn(CC(=O)NCCOc3ccc(C(C)(C)C)cc3)c2n(C)c1=O,-7,?,-6
O=c1[nH]c2cc3c(cc2cc1C(c1nnnn1Cc1ccccc1)N1CCCc2ccccc21)OCO3 (configuration not stated),6,-1.4,11
c1ccc2c(C[n+]3csc4ccccc43)cccc2c1,40,1.8,60*
Cc1c(Cl)cccc1Nc1nc(N)nc(CSCCO)n1,-19,7.7,0
Cc1cccc(-c2nnc(-c3ccccc3)o2)c1,-13,-0.1,-7
Cc1ccc(Cn2c(SCCN3CCCCC3)nc3c2c(=O)n(C)c(=O)n3C)cc1,2,-0.7,35
COC(=O)c1cc2c([nH]c3ccccc32)c(C)n1,2,1.4,-2
CC(=O)n1c2ccccc2c2c1c1ccccc1n2C,5,?,40
CN(C(=O)c1ccc(C#N)cc1)c1nnc(-c2ccccn2)s1,5,-1.6,-9
CCOCC(=O)Nc1c(C(=O)OCC)oc2ccccc12,-28,2.9,16
Cc1nc2sccn2c1P(c1c(C)nc2sccn12)c1c(C)nc2sccn12,6,-7.2,12
COc1ccc(S(=O)(=O)N2CCN(CC(=O)Nc3ccc(C)c(F)c3)CC2)cc1,7,2.8,18
O=C(c1cccn2c(=O)c3ccccc3nc12)N1CCN(Cc2ccc3c(c2)OCO3)CC1,-16,2.3,4
Cc1ccc(S(=O)(=O)N(C)Cc2ccc(-c3nnco3)cc2)cc1,19,0.0,-16
Cc1ccc(NC(=S)N=Nc2c(O)n(C)c3ccc(S(=O)(=O)N4CCOCC4)cc23)cc1,36,5.4,44
COC(=O)c1cccc(NC(=O)NC2CCCN2S(=O)(=O)c2ccc(Cl)cc2)c1 (configuration not stated),2,-1.9,-1
O=C(OCC#CCSc1nnc(-c2ccccc2)o1)c1cccs1,-19,-2.2,16
Cc1c(C(=O)O)c(=S)sn1CCOc1ccccc1,8,2.7,-9
Cc1nn(Cc2ccccc2Cl)c(C)c1NC(=O)C1C2CCC(O2)C1C(=O)O (configuration not stated),-4,?,-12
COc1ccc(O)c(/C=c2/sc3nc4cc(C)c(C)cc4n3c2=O)c1,6,1.5,-10
O=C(C1=C(O)C(=O)N(CCCN2CCOCC2)C1c1ccncc1)c1cc2ccccc2o1 (configuration not stated),-1,3.1,4
O=S(=O)(c1cccc(S(=O)(=O)N2CCC(N3CCCCC3)CC2)c1)N1CCOCC1,-35,0.6,-6
Cc1ccc(-n2c(Cc3cccn3C)nnc2SCC(=O)NCc2ccco2)cc1,0,-2.5,17
COc1cccc2c1N1C(=O)c3c(C(=O)O)cccc3C1CC2(C)C (configuration not stated),7,3.3,-3
O=C(CSc1nccn1-c1ccccc1)Nc1ccc2c(c1)OCO2,-20,2.0,-1
COc1ccc(N2CC(C)Cn3c2nc2c3c(=O)n(CCc3ccccc3)c(=O)n2C)cc1 (configuration not stated),-1,41*,13
COc1ccc(C(=O)N(CCCO)Cc2cc3c(C)ccc(C)c3[nH]c2=O)cc1OC,2,-0.8,-11
COC(=O)c1c(NC(=O)CN2CCC(C)CC2)c2c(C)cccc2n1C,-21,-1.4,-8
Cc1ccc(S(=O)(=O)N2CCN(c3nc(C)nc4sc(C)c(C)c34)CC2)cc1,-2,-3.8,-24
O=C(O)C1C2C=CC(O2)C1C(=O)NCCC1=CCCCC1 (configuration not stated),-2,1.1,-9
CC(C)=CC(=O)Nc1nc2ccc([N+](=O)[O-])cc2s1,-22,6.7,32
O=c1nc(/C=C/c2ccc(O)c(O)c2)oc2ccccc12,-5,-0.7,-47
COc1cccc(NC(=O)Cc2nnc(SCC(=O)c3ccccc3)n2C)c1,2,5.9,-4
COc1cc(/C=C/[N+](=O)[O-])ccc1OCc1cccc(C(=O)O)c1,-4,1.2,-26
CCc1nc(SCC(=O)Nc2c(C)nn(C)c2C)c2cnn(-c3ccccc3)c2n1,-7,1.9,-16
Cc1ccc(/C=N/Nc2ccc3c(C(F)(F)F)cc(C(F)(F)F)nc3n2)cc1,-3,0.6,-2
COc1cc(C(=O)N2CCC(c3nc(-c4cccnc4)no3)CC2)cc(OC)c1OC,-6,0.4,-9
N#Cc1ccc(CSc2nnc(-c3ccccn3)n2-c2ccc(Cl)cc2)cc1,69,-2.1,3
Cc1ccc(-n2ncc3c(=O)n(Cc4cccnc4)cnc32)cc1,-8,-0.8,5
Cc1ccnc(-n2c(CCN3C(=O)c4ccccc4C3=O)nc3ccccc3c2=O)c1,1,3.6,-1

# With a hit mark in RanGTP-Impb inh (from the list above):
SMILES,RanGTP-Impb inh
Cc1ccc2nc(NCCCN3CCOCC3)c(C=NCCCN3CCOCC3)c(=O)n2c1,39*
Cc1ccc(C(=O)C2=C(O)C(=O)N(CCN3CCOCC3)C2c2ccccn2)o1 (configuration not stated),23*
COc1ccc(N2CC(C)Cn3c2nc2c3c(=O)n(CCc3ccccc3)c(=O)n2C)cc1 (configuration not stated),41*

# Among those listed so far, these contain bromine.
SMILES,Calb FLC,RanGTP-Impb inh,T cruzi repl
O=C(CNC(=O)c1ccc(Br)cc1)NCCc1nc2ccccc2[nH]1,-1,-1.4,-15
COc1ccccc1NC(=O)CN1CCN(S(=O)(=O)c2ccc(Br)cc2)CC1,-7,?,8
O=C(CC(Sc1ccc(Br)cc1)C(=O)O)c1ccc(Br)cc1 (configuration not stated),-5,0.1,55*

# Source: PubChem
